B2AR ag: beta2AR agonists driving receptor internalization, primary screen, cell-based, FAP fluorogen, flow cytometry | Am2.2-beta2AR cells; reference of the scale not given here | response, % (no concentration beside the values) | hit rate 0.43% among 340,000 | AID 504454, 2011;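 active = response above a set limit, near 3 SD of response in nonfluorescent compounds, cut at about 42% in these data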;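 also: stock transfer was 100 nL into about 11 µL; a reference agonist was the positive control; negative values mostly stem from fluorescent compounds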
Target sequence (P07550 whole entry, looked up): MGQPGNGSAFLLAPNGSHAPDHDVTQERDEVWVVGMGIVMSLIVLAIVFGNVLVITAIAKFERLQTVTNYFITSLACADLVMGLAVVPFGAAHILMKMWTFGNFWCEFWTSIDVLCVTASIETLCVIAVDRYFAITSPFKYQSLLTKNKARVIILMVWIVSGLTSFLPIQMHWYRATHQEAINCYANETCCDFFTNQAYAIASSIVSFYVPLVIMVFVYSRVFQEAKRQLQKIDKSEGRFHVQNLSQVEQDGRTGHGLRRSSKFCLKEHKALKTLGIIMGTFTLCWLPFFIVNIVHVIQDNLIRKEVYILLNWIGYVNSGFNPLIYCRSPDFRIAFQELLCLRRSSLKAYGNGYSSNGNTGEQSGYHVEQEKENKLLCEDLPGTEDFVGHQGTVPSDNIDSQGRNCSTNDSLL
T cruzi inh: inhibitors of intracellular T. cruzi growth, primary screen, luminescence, NIH3T3 host cells | T. cruzi beta-gal in NIH3T3, 90 h | inhibition, % (test concentration not listed) | hit rate 1.4% among 300,000 | AID 1885, 2009;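 active = mean inhibition across valid replicates above about 55%, limit read from the data; inconclusive = mean below that limit but half or more replicates reach it; inactive = mean below it, under half of replicates reach it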;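 also: signal also drops with host cell toxicity which is not excluded here; 0% = plate median of DMSO wells and 100% = zero luminescence signal; higher percent means less beta-gal luminescence so fewer parasites; stock transfer was 50 nL into about 50 µL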
Calb FLC: C. albicans growth inhibition with fluconazole, primary screen, CaCi-2 strain, Alamar Blue fluorescence. C. albicans CaCi-2 (fluconazole-resistant clinical isolate) + fluconazole, 48 h. growth inhibition, % (test concentration not listed). hit rate 0.57% among 300,000. AID 1979, 2009;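 active = most replicates above 75%; inconclusive = exactly half above 75%; inactive = most below 75%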;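 also: all wells also contain fluconazole at 8 µg/ml as a sub-toxic cotreatment; 0% = median of DMSO wells and 100% = median of geldanamycin control wells; wells of about 8 µL received 7.5 nL stock; the first replicate is given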
Bfl-1 A1 inh: caspase 3/7 activation in MEF A1-2A-BIM cells, primary screen, A1 inhibitor project, cell-based, luminescence, HTS. Caspase-Glo 3/7 luminescence, 3 h; percent of clofoctol response, vehicle zero. caspase activation, % (concentration not given with the values). hit rate 0.066% among 330,000. AID 2462, 2010;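 active = over half of replicate activation scores above 10%, or exactly half above 10 with the replicate mean above 10; inconclusive = replicate mean below 10 yet half the replicates above 10; inactive = over half of replicates below 10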;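 also: wells of about 30 µL received 50 nL stock; many hits fall short of the cut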
UCH37 inh: inhibitors of human UCH37 deubiquitinase, primary screen, biochemical, Ub-AMC cleavage, fluorescence; inhibition, % (test concentration not listed); purified proteasome/UCH37; Ubiquitin carboxyl-terminal hydrolase isozyme L5 (Homo sapiens), Q9Y5K5; hit rate 0.33% among 330,000;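 active = mean of two replicates above 20%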;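 also: 0% = compound-free wells with enzyme and 100% = wells lacking proteasome; stock transfer was 100 nL into about 20 µL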
Target sequence (Q9Y5K5 whole entry, looked up): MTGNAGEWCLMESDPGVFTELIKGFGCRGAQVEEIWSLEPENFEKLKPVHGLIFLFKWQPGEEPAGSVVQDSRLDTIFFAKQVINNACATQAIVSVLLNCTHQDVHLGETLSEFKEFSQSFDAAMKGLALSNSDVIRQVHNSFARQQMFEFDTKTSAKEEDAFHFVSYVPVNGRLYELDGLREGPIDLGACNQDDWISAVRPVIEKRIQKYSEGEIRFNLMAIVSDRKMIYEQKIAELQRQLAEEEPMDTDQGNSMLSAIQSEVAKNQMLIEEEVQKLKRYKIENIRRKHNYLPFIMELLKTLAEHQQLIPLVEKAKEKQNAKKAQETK
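Material: human UCH37 enzyme supplied as purified proteasome complex. Measure: % inhibition of Ub-AMC cleavage fluorescence. Medium: pH 7.4 Tris-HCl (50 mM) with ovalbumin, ATP-MgCl2, DTT. Times: 30 min preincubation with enzyme, 25 min cleavage at room temperature. Detection: AMC fluorescence intensity at 355/460 nm.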
RanGTP-Impb inh: inhibitors of RanGTP-importin-beta interaction, primary screen, biochemical, FRET, CFP-Ran, YFP-importin-beta, homogeneous | hit rate 1.1% among 300,000 | cell-free CFP-Ran/YFP-importin-beta FRET ratio | inhibition, % (no concentration beside the values) | Ran GTPase (GTP-bound) - importin-beta complex;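 active = most replicates above 15%; inconclusive = exactly half above 15%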;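 also: 0% = DMSO wells and 100% = Ran loaded with GDP instead of GTP; wells of about 40 µL received 100 nL stock; the first replicate is given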
Beta cell apopt: inhibitors of cytokine-induced beta cell apoptosis, primary screen, luminescence. INS-1E cytokine-induced death, ATP luminescence, 48 h; percent of positive-control rescue, neutral wells zero. protection from apoptosis, % (test concentration not listed). hit rate 0.8% among 300,000;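 active = all replicates at 75% or more, or half of them and the mean; inconclusive = half reach 75% but not the mean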;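 also: 0% = cytokine-treated negative control wells and 100% = positive control rescue; higher means more ATP so stronger rescue from cytokine killing; wells of about 40 µL received 100 nL stock; the first replicate is given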
LANA-H2A inh: blockers of LANA interaction with H2A/H2B – biochemical, FP readout, HTS, primary screen. cell-free LANA-H2A/H2B peptide, fluorescence polarization. inhibition, % (no concentration beside the values). hit rate 0.6% among 320,000; in the data active = inhibition mostly above about 10%, no sharp cut-off; inactive = mostly below about 6.7%;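 also: stock transfer was 7.5 nL into about 10 µL; 0% = median of vehicle wells and 100% = median of positive control wells; one replicate is shown; the record names a cut of 25% in any replicate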
An asterisk follows results filed as active; ? = inconclusive; . = not tested or not shown.

The line under a structure holds: B2AR ag	T cruzi inh	Calb FLC	Bfl-1 A1 inh	UCH37 inh	RanGTP-Impb inh	Beta cell apopt	LANA-H2A inh
> COc1ccc(NC(=O)Nc2ccc3c(c2)C(=O)N([C@H](C)CO)C[C@H](C)[C@@H](CN(C)C(=O)Nc2ccccc2)O3)cc1
  -4	.	.	0.8	1.8	.	-11	1.2
> CC(C)=NN/C(N)=N/C(=S)Nc1ccc(C)cc1
  -7	-4	-7	-0.9	3.6	2.5	-8	-0.6
> Cc1[nH]c(=S)c(C#N)c(C)c1Cc1ccccc1
  2	3	-10	0.4	7.7	0.9	0	5.6
> Cc1c(C)c2ccc(OC(C)C(=O)NCCCN3CCOCC3)c(C)c2oc1=O (stereo not given)
  1	5	-5	-0.4	-35	-1.0	3	2.7
> Cc1nc(NCCc2ccccc2)sc1C(=O)O
  5	-7	-9	-2.3	0.3	?	-12	-0.5
> Cc1cccc(C(=O)OCC(=O)Nc2ccc3c(c2)OCCO3)c1
  -1	.	.	0.1	3.4	.	-8	1.3
> COC(=O)c1cccc(Nc2nc(-c3cccnc3)nc3ccccc23)c1
  9	50	16	0.0	-44	3.4	28	4.0
> CCOc1cc(-c2conc2N)cc(OCC)c1OCC
  -2	4	-14	2.0	2.7	3.0	-19	-2.0
> O=C(CN1CCN(Cc2ccccc2)CC1)Nc1ccc(Cl)cn1
  0	25	-6	-1.0	0.7	3.0	1	4.1
> COc1cc(C(=O)Nc2sc3c(c2C#N)CCN(C(C)=O)C3)cc(OC)c1OC
  2	2	0	0.0	7.2	38*	4	-2.2
> O=C(CCN1C(=O)/C(=C/c2ccccc2F)SC1=S)Nc1cccnc1
  -4	-8	4	-0.4	-0.8	1.3	0	5.2
> CN1CCN(C(=O)CN(C)S(=O)(=O)c2ccc3ccccc3c2)CC1
  -3	22	-13	0.6	3.7	?	-3	6.2
> Cc1ccc(CN2CC(C(=O)O)CC2=O)cc1 (stereo not given)
  5	-2	-5	0.0	4.4	-0.5	-2	0.0
> O=C(N[C@H](C(=O)O)c1ccccc1)C1CCC(Cn2nnc3ccccc3c2=O)CC1 (stereo not given in full)
  .	-4	-7	-0.6	5.4	0.2	-4	2.6
> CCc1nn(CC(=O)NC(C)CCc2ccccc2)c(=O)c2cc3occc3n12 (stereo not given)
  -9	21	-4	-1.2	4.6	0.3	-2	-4.7

Record cards, from the list above. Order of screens: B2AR ag | T cruzi inh | Calb FLC | Bfl-1 A1 inh | UCH37 inh | RanGTP-Impb inh | Beta cell apopt | LANA-H2A inh
Cc1c(C)c2ccc(OC(C)C(=O)NCCCN3CCOCC3)c(C)c2oc1=O (stereo not given) is listed as 1 | 5 | -5 | -0.4 | -35 | -1.0 | 3 | 2.7
Cc1nc(NCCc2ccccc2)sc1C(=O)O is listed as 5 | -7 | -9 | -2.3 | 0.3 | ? | -12 | -0.5

Other entries
The line under a structure holds: B2AR ag	T cruzi inh	Calb FLC	Bfl-1 A1 inh	UCH37 inh	RanGTP-Impb inh	Beta cell apopt	LANA-H2A inh
> CC(=O)Nc1nc(CC(C)C)cc2c1c(=O)oc1ccccc12
  -11	-26	32	-0.3	-25	3.9	-4	1.4
> Cc1nnc(NC(=O)CSc2nnc3scc(-c4ccc(C)c(C)c4)n23)s1
  2	-5	-17	0.4	5.5	-0.5	-4	-3.3
> Cc1oc(-c2ccccc2Cl)[n+]([O-])c1C
  -3	-5	-14	0.5	-2.6	-1.7	-3	1.4
> CC1=C(C)C(c2ccccc2)NC(=S)N1 (stereo not given)
  -8	-8	-11	-0.7	1.2	1.3	3	0.0
> Cc1occc(=O)c1OCc1c(F)cccc1Cl
  3	-9	-7	1.1	3.2	2.7	.	2.0
> CCn1c(=N)n(CC(=O)c2ccc(Cl)c(Cl)c2)c2ccccc21
  8	17	23	1.0	4.7	2.7	4	-0.8
> CCOC(=O)COc1cc(OCC(=O)OCC)c2c3c(c(=O)oc2c1)CCCC3
  11	-13	4	-0.1	-120	2.4	-8	4.0
> COc1cccc(NC(=O)COC(=O)c2ccc(F)cc2F)c1
  -1	-7	-7	-0.7	2.8	-1.7	-6	-2.4
> CN(C)/C=C/C(=O)C(F)(F)F
  -3	-3	2	0.8	4.5	4.4	-6	0.3
> Cc1cc(C)n2nc(SCCOc3ccc(F)cc3)nc2n1
  -10	21	-8	-0.2	-1.0	0.1	-2	-7.3
> COc1ccc(C2Nc3ccccc3C(=O)N2NC(C)=O)c(OC)c1 (stereo not given)
  8	-3	1	0.3	-323	1.0	-5	2.2
> Cc1cc(=O)oc(C)c1C(=O)N1CCN(c2ccc(F)cc2)CC1
  -4	-12	3	1.8	-0.4	-4.2	-2	2.8
> Cc1ccc(S(=O)(=O)N2CCCCC2)cc1NC(=O)CN1C(=O)c2ccccc2S1(=O)=O
  6	.	.	1.8	1.2	.	-4	0.1
> C=CCOc1nc2sc(C)c(C)c2c(=O)n1-c1ccccc1
  -2	-4	8	0.3	2.6	2.4	.	7.1
> COC(=O)CNC(=O)Cn1cnc2sc(C)c(S(=O)(=O)N3CCC(C)CC3)c2c1=O
  -4	-1	2	-0.3	1.8	2.5	-5	2.9

Only T cruzi inh and RanGTP-Impb inh, for 6 of the compounds above:
compound	T cruzi inh	RanGTP-Impb inh
CCn1c(=N)n(CC(=O)c2ccc(Cl)c(Cl)c2)c2ccccc21	17	2.7
CCOC(=O)COc1cc(OCC(=O)OCC)c2c3c(c(=O)oc2c1)CCCC3	-13	2.4
COc1cccc(NC(=O)COC(=O)c2ccc(F)cc2F)c1	-7	-1.7
CN(C)/C=C/C(=O)C(F)(F)F	-3	4.4
Cc1cc(C)n2nc(SCCOc3ccc(F)cc3)nc2n1	21	0.1
COc1ccc(C2Nc3ccccc3C(=O)N2NC(C)=O)c(OC)c1 (stereo not given)	-3	1.0

The list goes on.
The line under a structure holds: B2AR ag	T cruzi inh	Calb FLC	Bfl-1 A1 inh	UCH37 inh	RanGTP-Impb inh	Beta cell apopt	LANA-H2A inh
> COc1ccc(S(=O)(=O)N2CCOCC2)c(Cl)c1Cl
  -9	-7	12	-0.2	-1.4	3.1	3	-3.8
> COc1ccc(Cl)cc1C(=O)Nc1cccc2ncccc12
  -10	1	27	0.4	1.2	-2.5	-2	3.7
> CCC(C)(C)NC(=O)C(c1ccc(F)cc1)N(Cc1ccco1)C(=O)c1snc(C(N)=O)c1N (stereo not given)
  1	10	-11	-0.3	-23	-1.2	-2	1.3
> C/C(=N\NC(=O)C(=O)Nc1cccc(Cl)c1C)c1ccncc1
  5	5	9	-0.7	.	3.0	-9	0.4
> O=C1NCCCC1C(=O)N/N=C/c1ccc([N+](=O)[O-])cc1 (stereo not given)
  8	0	-3	0.6	.	7.5	-18	4.6
> COc1ccc(NC(=O)COC(=O)c2cc(Cl)ccc2O)cc1S(=O)(=O)N1CCCCC1
  -12	.	.	0.0	-10	.	0	-3.1
> Cn1c(=O)c2c(ncn2CC(=O)OCC(=O)NC2CCCc3ccccc32)n(C)c1=O (stereo not given)
  1	-2	1	-0.2	2.7	3.2	-27	3.8
> O=c1c2[nH]cnc2n(-c2cccc(Br)c2)c(=O)n1Cc1ccccc1
  -20	-13	-12	0.0	-0.7	?	-3	-4.2
> COc1cc(CNC(=O)c2ccc3c(c2)S(=O)(=O)c2ccccc2C3=O)cc(OC)c1
  1	18	1	-0.3	3.2	-1.1	5	-2.1
> COC(=O)c1cccc(NC(=O)c2cccc(N3C(=O)CCC3=O)c2)c1
  -1	.	.	1.6	5.5	.	3	1.2
> O=C(c1ccc2c3c(cccc13)CC2)N1CCN(c2ncccn2)CC1
  -3	-6	35	0.2	-0.1	7.0	-15	3.3
> Cc1cccc(Cn2cc(SCC(=O)Nc3nccs3)c3ccccc32)c1
  -3	7	1	0.3	1.5	-0.5	1	-2.3
> CC(C)OC(=O)CC(=O)CSc1nc(-c2ccc(F)cc2)cc(-c2ccccc2)c1C#N
  1	33	21	0.5	-84	-2.7	2	2.8
> CCOc1nc(C)ccc1-c1noc(CC)n1
  1	-5	-4	0.1	3.2	5.9	2	-2.1
> COc1ccccc1CC(=O)N1CCN(c2cccc(C(F)(F)F)c2)CC1
  4	-3	10	-0.9	1.7	-5.0	41	-2.9

Other results follow.
The line under a structure holds: B2AR ag	T cruzi inh	Calb FLC	Bfl-1 A1 inh	UCH37 inh	RanGTP-Impb inh	Beta cell apopt	LANA-H2A inh
> CN1CCc2c(sc(NC(=O)c3ccc(S(=O)(=O)N4CCCCCC4)cc3)c2C(N)=O)C1
  -47	50	-3	-1.0	.	58*	-1	-1.8
> Cc1cc(C)c2c(n1)sc1c(O)cc(=O)[nH]c12
  1	-2	-3	0.1	-82	-0.3	.	0.4
> O=C(NC(Cc1c[nH]c2ccccc12)C(=O)N/N=C/c1ccc(Cl)cc1)c1cccs1 (stereo not given)
  1	6	12	-0.6	.	3.2	-1	4.3
> COc1cccc(-c2nc(CS(=O)(=O)CC(=O)NC3CCCCCC3)c(C)o2)c1
  -12	3	-7	0.1	1.2	1.0	-2	-0.1
> CCCSc1ccc([C@@H]2[C@@H]3C(=O)N(CC)C(=O)[C@@H]3[C@]3(C(=O)OC)CCCCN23)cc1OC
  15	.	.	0.5	-0.3	.	-10	3.0
> Cc1ccc2[nH]cc(CCNC(=O)CN3C(=O)c4ccccc4C3=O)c2c1
  2	-22	-10	-0.3	0.9	1.0	0	-1.1

4 compounds out of the list, arranged by molecular weight, lowest first:
The line under a structure holds: B2AR ag	T cruzi inh	Calb FLC	Bfl-1 A1 inh	UCH37 inh	RanGTP-Impb inh	Beta cell apopt	LANA-H2A inh
> Cc1cc(C)c2c(n1)sc1c(O)cc(=O)[nH]c12
  1	-2	-3	0.1	-82	-0.3	.	0.4
> COc1ccccc1CC(=O)N1CCN(c2cccc(C(F)(F)F)c2)CC1
  4	-3	10	-0.9	1.7	-5.0	41	-2.9
> O=C(NC(Cc1c[nH]c2ccccc12)C(=O)N/N=C/c1ccc(Cl)cc1)c1cccs1 (stereo not given)
  1	6	12	-0.6	.	3.2	-1	4.3
> CCCSc1ccc([C@@H]2[C@@H]3C(=O)N(CC)C(=O)[C@@H]3[C@]3(C(=O)OC)CCCCN23)cc1OC
  15	.	.	0.5	-0.3	.	-10	3.0
